MT stabilizer – microtubule stabilizers in HeLa cells, primary screen, imaging, high-content imaging; AID 2205, 2009; HeLa tubulin immunostaining HCS, 24 h; share of cells brighter than vehicle mean+2SD; % tubulin-high responders, % at 10 µM; 0.83% of 200,000 active;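 active = plate Z-score above 3 for both tubulin-high and condensed-nucleus cell shares, with cell loss under 80%, at 10 µM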;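 also: anti alpha tubulin signal scored within the nucleus-defined area of each cell; some results filed as inactive read as strong as hits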
Myeloid diff 2 – induction of myeloid progenitor differentiation, primary screen, cell-based, flow cytometry, MLPCN library; ER-HoxA9 myeloid progenitors, lysozyme-GFP differentiation; calls only at 10 µM; 1% of 360,000 active;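 active = normalized GFP-positive differentiation at or above the plate's own cutoff, the solvent-only control mean plus 3 SD; inconclusive = no clear call, values can overlap the other calls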;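 also: cells exposed to compound for four days before flow analysis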
West Nile antiviral – West Nile virus antiviral activity, cell-based, CPE readout (AID 1621). West Nile virus-infected cells, CPE inhibition; higher % means a stronger effect. CPE inhibition, % at 10 µM; hits with a dose series show IC50 in µM. 0.02% of 290,000 active; in the data active = a potency from the dose series; inconclusive = CPE inhibition mostly from about 3.7% at the one dose, without a potency; inactive = the rest, 99 in 100 with CPE inhibition below about 2.2%; also: strong numbers were not always called active
Hep lipid drop – inhibitors of hepatocyte lipid droplet formation, primary screen, imaging, high-throughput imaging, BODIPY stain; AML12 mouse hepatocytes, oleate lipid droplets; inhibition, % at 6.5 µM; 0.4% of 240,000 active;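 active = lipid droplet intensity inhibited by at least 50%, with more than 500 cells counted; inconclusive = wells with under 300 cells, treated as cytotoxic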
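Test system: AML12 mouse liver cells; schedule: overnight exposure; technique: high-content imaging of BODIPY-stained droplets and DAPI nuclei; read-out: % inhibition of corrected integrated BODIPY droplet signal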
T cell HTS – modulators of CD8 T cell-vesicle binding, primary screen, mouse 2C CD8+ T cells, flow cytometry; 0.068% of 330,000 active; 2C CD8+ T cell-vesicle binding; stronger effect = lower value; calls only at 7 µM;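 active = response, share of CD8 T cells binding vesicles, and their 90th percentile fluorescence all below set limits, cut at about 80% in these data, passing the limit was not always enough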
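Also added: QL9-peptide-loaded Drosophila micro-vesicles bearing Ld, ICAM-1 and B7-1; Test system: purified 2C TCR transgenic mouse naive CD8+ T cells; Measured by: cytometric PE anti-B7-1 and Alexa647 anti-CD8 signals after 1% paraformaldehyde fixation; Timing: binding step 1.5 h, 37 °C, antibody labelling 20 min, ice.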
WT yeast gro inh – growth inhibition of WT strain, primary screen, mitochondrial fusion inhibitor project, WT and mutant strains, chemical genetic. 2.1% of 190,000 active. AID 1362, 2008. mitochondrial fusion phenotypic screen. inhibition, % at 10 µM; in the data active = inhibition above about 58%; tested in S. cerevisiae
Ins promoter up – insulin promoter activators in MIN6 cells, imaging, high-content screening, mouse beta cells | MIN6 insulin promoter-GFP reporter; stronger effect = higher value | z-score at 5 µM | 0.3% of 190,000 active | AID 1625, 2009;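 active = z-score above 3 at 5 µM with at least 500 cells counted in the well; inconclusive = wells under 500 cells, flagged as cytotoxic or low count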
Autophagy mod – autophagy modulators in MEF cells, primary screen, imaging, high-content, MEF GFP-LC3; calls only at 10 µM (by protocol); MEF GFP-LC3 puncta imaging; test concentration mostly 10 µM; 0.98% of 190,000 active;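 active = percentage of spot-positive cells more than 3 SD above its plate mean, without a fluorescence outlier flag or 80% toxicity; inconclusive = no clear call, values can overlap the other calls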;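 also: spot-positive cell cutoff set from DMSO-treated cells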
WT yeast gro inh mutant strain – second read-out of WT yeast gro inh, no call of its own (marks repeat the call); inhibition, %; mitochondrial fusion phenotypic screen, mutant strain inhibition
Ins promoter up cell count – further read-out of Ins promoter up, marked with its call; cell count; measured here: cytotoxicity, nuclei count;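 total cells summed across four imaged fields per well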
Hep lipid drop cells 6.5 µM – also measured in Hep lipid drop; calls as there; cell count; measured here: cell count, cytotoxicity flag;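 cells counted across two imaged fields per well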
T cell HTS vesicle-bound % – second read-out of T cell HTS, no call of its own (marks repeat the call); double positive events, %; measured here: CD8+ vesicle-bound cell fraction;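 binding gate set so that unloaded-vesicle control wells show 10% double positive cells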
MT stabilizer Hoechst-high % – further read-out of MT stabilizer, marked with its call; % Hoechst-high responders; measured here: nuclear condensation Hoechst responders;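 share of cells brighter than vehicle mean plus two SD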
MT stabilizer cytotoxicity % – also measured in MT stabilizer; calls as there; toxicity, %; measured here: cytotoxicity by cell density;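 0% = mean cell density of plate MIN control wells and 100% = no cells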
Autophagy mod cell loss 18 h – also measured in Autophagy mod; calls as there; toxicity, %; measured here: cell loss, nuclei count;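 cell loss after 18 h compound exposure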
Myeloid diff 2 GFP+ MAC1+ % – recorded beside Myeloid diff 2, whose call it bears; GFP+ MAC1+ double positive, %; measured here: differentiation confirmed by MAC1 staining
* marks the source's active call; other numbers are inactive results; i = inactive; ? = inconclusive; · = no result given; + = active, no number. Some of the compounds tested; count on the stated rates, not on these rows.

SMILES	MT stabilizer	MT stabilizer Hoechst-high %	MT stabilizer cytotoxicity %	Myeloid diff 2	Myeloid diff 2 GFP+ MAC1+ %	West Nile antiviral	Hep lipid drop	T cell HTS	T cell HTS vesicle-bound %	WT yeast gro inh	WT yeast gro inh mutant strain	Ins promoter up	Ins promoter up cell count	Autophagy mod	Autophagy mod cell loss 18 h	others
COc1ccccc1-c1nnc2n1N=C(c1ccc(O)c(O)c1)CS2	20.6*	36.9*	46.4*	i	0.3	-1.4%	·	i	31.4	-14.0	-28.5	-2.96	745	i	53.8
Cc1cc(C)n(-c2nc(-c3ccc(Cl)c(Cl)c3)cs2)n1	1.5	1.6	7.9	i	0.8	0.5%	·	i	29.7	2.9	18.4	-0.03	1490	i	-8.6
O=C(CNC(=O)c1ccccn1)N/N=C/c1ccccc1	2.8	1.5	7.7	i	1.1	0.4%	·	i	31.6	-19.6	-5.8	-0.4	1604	i	20.3
Cc1nn(Cc2c(Cl)cccc2Cl)c(C)c1NC(=O)c1cn(-c2ccccc2)nc1-c1ccccc1	52.9	3.1	54.4	i	1.0	·	·	i	43.2	7.3	0.9	-2.09	682	i	60.0
COC(=O)c1ccc(C(=O)OC)c(NC(=O)CSCc2ccc(Br)cc2)c1	3.3	1.8	9.3	i	12.4	0.6%	·	i	19.8	-0.2	-2.5	2.1	1455	i	-21.2
FC(F)(F)c1nc(-c2cccnc2)ncc1-c1nnnn1-c1ccccc1	2.6	1.7	8.3	i	2.6	0.8%	·	i	18.8	-5.0	-16.0	-0.13	1625	i	-18.7
CC(=O)NCCn1c(SCc2ccc(C)cc2)nc2ccccc2c1=O	1.3	0.9	3.1	i	0.6	-0.3%	·	i	34.2	65.3*	22.7*	0.56	1524	i	5.3
CCn1c(-c2cccnc2)n[nH]c1=S	1.2	1.5	6.7	i	6.3	-0.1%	·	i	41.9	-7.1	-31.5	0.55	1735	i	2.3
Oc1ccc2ccccc2c1CNc1cnc2ccccc2c1	2.5	1.3	2.5	i	7.1	-0.5%	4.6	i	41.0	-11.7	3.7	0.63	877	i	-11.6	Hep lipid drop cells 6.5 µM=690
O=C(Nc1ccc(Oc2ccccc2)cc1)C1CCN(c2c3c(nc4ncnn24)CCC3)CC1	3.4	3.4	1.6	i	0.8	2.2%	·	i	21.4	9.1	-12.1	-1.55	1363	i	7.7
Cc1ccc(-n2c([O-])nc(-[n+]3ccccc3)c2C=O)cc1	2.0	1.0	5.3	i	2.1	-0.2%	·	i	33.5	-5.2	5.2	-0.1	1503	i	-5.2
CC1CCN(C(=O)C(NS(=O)(=O)c2cccc3nsnc23)c2ccccc2)CC1 (configuration not stated)	6.7	2.1	13.5	i	0.8	-0.3%	·	i	4.7	20.8	21.4	-0.59	1516	i	-41.9
O=C(CC1c2ccccc2Oc2ccccc21)N1CCN(c2ccccn2)CC1	4.3	2.5	13.5	i	4.1	0.0%	·	i	30.4	5.8	-4.8	0.35	1394	i	1.2
O=C(O)/C=C1\NC(=O)c2ccccc21	8.8	2.3	9.9	i	0.0	0.1%	·	i	19.8	-2.1	8.1	-0.46	1423	i	15.4
CCOc1ccc2nc(C)cc(C(=O)O)c2c1	5.4	2.8	6.3	i	6.3	0.2%	·	i	11.1	13.4	-0.5	0.07	1666	i	-15.7
CCOC(=O)c1cncc(C(=O)O)c1	3.9	1.7	5.4	i	0.8	0.7%	·	i	35.5	-41.3	-6.1	0.34	1612	i	6.9
CC(=O)C(N=Nc1ccccc1)(Sc1nnc(-c2ccccc2)n1-c1ccccc1)C(=O)Nc1ccccc1 (configuration not stated)	1.5	2.0	11.0	i	2.8	-1.6%	·	i	39.8	27.7	-30.5	0.35	884	i	28.3
O=C(Nc1cccc(C(F)(F)F)c1)C1CCCN(S(=O)(=O)c2cnc[nH]2)C1 (configuration not stated)	4.4	3.6	0.1	i	0.6	0.7%	·	i	44.6	2.7	1.1	1.05	1187	i	13.2
O=C(CN(c1ccccc1)S(=O)(=O)c1ccccc1)NCCSCc1ccco1	2.9	1.6	2.7	i	1.2	-0.9%	·	i	29.1	-19.0	-11.0	0.91	1269	i	-20.9
Cc1cc(C)c2c(N)c(C(=O)c3ccccc3)oc2n1	1.6	1.1	10.3	i	5.0	0.2%	5.1	i	21.6	-10.6	-7.1	0.22	1165	i	-1.9	Hep lipid drop cells 6.5 µM=747
CCC(C)(C)NC(=O)C(c1ccc(C)o1)N(Cc1cccs1)C(=O)Cn1nnc2ccccc21 (configuration not stated)	2.6	1.0	0.7	i	0.6	0.0%	·	i	9.9	47.8	12.8	-0.11	1098	i	8.5
CCCOc1ccc(C(=O)NNC(=S)NC(C)=O)cc1	4.7	1.1	4.0	i	0.3	?	·	i	44.3	14.3	-10.2	-0.35	1497	i	24.8
COc1ccc(-n2nc([N+](=O)[O-])c(=NCCc3ccc(Cl)cc3)n2O)cc1	3.3	2.5	7.0	i	6.1	·	·	i	18.7	16.8	16.8	-0.44	1517	i	-21.4
O=C(N/N=C/c1ccco1)c1ccncc1	2.1	2.5	7.1	i	0.7	-0.2%	·	i	45.9	9.4	-4.6	1.77	1427	i	2.0
O=C(NCC1CCCO1)c1cccc(F)c1 (configuration not stated)	2.8	1.4	2.4	i	1.0	0.1%	·	i	8.9	13.6	6.6	0.03	1582	i	-2.4
COc1ccc(-n2cnnc2SCC(=O)Nc2ccc(N3CCOCC3)cc2)cc1	1.1	2.2	2.9	i	0.6	1.1%	·	i	12.1	0.1	-1.1	-0.19	1451	i	3.7
CCOc1ccc(C(=O)N2CCCC2C(=O)O)cc1 (configuration not stated)	1.3	2.0	5.0	+	19.3*	-0.6%	·	i	42.1	10.2	15.2	2.89	1180	i	6.4
O=C(Nc1ccc(-c2cn3ccccc3n2)cc1)c1ccc(Cl)cc1	2.2	1.4	8.5	i	1.1	0.2%	·	i	47.6	-0.1	-2.2	-0.07	1379	i	-3.8
O=C(O)C1C2C=CC(C2)C1C(=O)NCCC1=CCCCC1 (configuration not stated)	3.1	3.1	8.7	i	7.9	-0.2%	·	i	27.2	-5.0	1.6	-0.45	1246	i	10.0
CCn1nc(C)c(NC(=O)CCSc2nc(-c3ccco3)cc(C(F)(F)F)n2)c1C	2.5	2.1	5.0	i	0.6	-1.1%	·	i	27.0	13.4	17.6	-0.53	766	i	-3.2
CCCNC(=O)N1CCC(C(=O)c2cccc(F)c2)CC1	2.6	2.0	3.7	i	1.7	1.1%	·	i	40.5	4.5	15.2	0.12	1433	i	-1.9
O=C(Nc1cccc(C(=O)N2CCOCC2)c1)c1ccccc1	2.1	1.9	3.7	i	0.9	-0.4%	·	i	46.6	12.8	13.8	-0.13	1547	i	-0.2
CC1=C(C(=O)NCCN2CCN(C)CC2)C2(CCC(C)CC2)OC1=O (configuration not stated)	4.2	4.5	4.7	i	1.2	-0.1%	·	i	22.7	4.6	11.6	0.34	1446	i	-2.5
O=C(NN=c1c(=O)c2ccccc2c1=O)c1ccccc1	2.6	2.0	10.3	i	4.1	0.1%	·	i	63.5	9.1	-0.8	-0.23	1538	i	-33.0
CCOc1ccc(/C=N/NC(=O)COc2ccccc2-c2ccccc2)cc1	38.2	10.9	39.7	i	0.5	0.7%	·	i	42.9	21.1	-8.7	-0.59	1612	i	13.0
CCOC(=O)CN1NC2(CCC(C(C)(C)C)CC2)NC1=S (configuration not stated)	3.0	1.9	2.2	i	0.0	0.2%	·	i	13.2	16.4	-9.6	0.42	1506	i	-2.3
CCOC(=O)C1=C(C)N(CC(C)C)C(=O)/C1=C\c1ccc(OCC(=O)Nc2ccccc2)cc1	3.2	1.3	5.2	i	0.5	0.1%	·	i	18.8	0.0	-2.9	0.22	1669	i	-17.7
CCC(C)NC(=O)C1CCN(S(=O)(=O)c2cccnc2)CC1 (configuration not stated)	1.2	0.5	5.6	i	1.3	0.2%	-2.1	i	·	3.6	9.4	0.52	776	i	4.5	Hep lipid drop cells 6.5 µM=790
Cc1cc(C)n(-c2nc3c(c(=O)[nH]c(=O)n3C)n2C(C)C)n1	4.2	5.5	7.2	i	0.8	0.6%	·	i	37.4	-2.4	7.6	1.25	1479	i	-11.6
Cc1cc(/C=C(\C#N)C(=O)Nc2ccccc2)c(C)n1-c1cccnc1	4.1	2.0	3.4	i	0.6	-0.1%	10.2	i	66.7	-10.2	-12.6	-0.3	1492	i	14.1	Hep lipid drop cells 6.5 µM=525
Cc1ccc2nc(NC(=S)NC(=O)c3cccs3)sc2c1	2.0	1.0	6.2	i	0.7	-0.1%	·	i	29.6	27.8	38.4	-0.4	1521	i	-0.4
COc1ccc(C2=NOC(C(=O)NC(C)(C)C)C2)cc1 (configuration not stated)	3.9	4.7	7.1	i	1.2	0.0%	·	i	39.2	3.3	10.0	-0.15	1560	i	9.0
Cc1cc(C)c2c(c1)[C@@H]1C=CC[C@@H]1[C@H](c1ccc(S(=O)(=O)N3CCOCC3)cc1)N2	3.1	2.8	6.3	i	0.6	-0.2%	3.7	i	43.2	3.0	-20.3	0.3	1253	i	0.2	Hep lipid drop cells 6.5 µM=658
O=C(COc1ccc(OCc2ccccc2)cc1)NC1CCOC1=O (configuration not stated)	2.5	2.0	5.7	i	0.6	0.3%	·	i	44.9	-14.9	-9.9	0.99	1411	i	-0.4
COc1ccc(CNC(=O)C2CCN(C(=O)N3CCOc4ccc(C)cc43)CC2)cc1	3.8	2.3	19.1	i	0.8	-0.3%	·	i	57.6	3.2	-10.1	-0.02	1568	i	17.3
